CapD inh: blocks the Bacillus anthracis CapD enzyme. purified CapD enzyme, fluorescence intensity read-out; hits give low values; some hits fall short of the stated cut. z-score (test concentration not listed). 140,000 compounds, 0.23% hits. AID 492967;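 active = z-score under -4 in either of two replicates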;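 note: stock transfer was 100 nL into about 40 µL; score is relative to mean and spread of the plate; one replicate is shown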
AID504770: growth inhibitors of E. coli YBA685 in a screen for V. cholerae RctB (chromosome II replication) inhibitors. z-score (no concentration beside the values). E. coli YBA685 rctB-dependent plasmid, OD600 growth, 3 h; hits give low values. AID 504770. 130,000 compounds, 0.27% hits;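 active = z-score under -2 on both plates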;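 note: wells of about 30 µL received 100 nL stock; score is relative to mean and SD of the test wells; the first replicate is given; strong numbers were not always called active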
* = called active by the depositor; . = no result given; & = joins results of further samples.

SMILES	CapD inh	AID504770
N#Cc1ccc(Oc2c(Cl)cncc2Cl)cc1	0.945	0.25
O=C1CCCN1C(=O)CSc1nc2ccccc2n1-c1ccccc1	.	-1.05
Cc1ccc(Cn2c(N)nc3ccccc32)cc1	0.025	0.2
COC(=O)c1sccc1NC(=S)Nc1ccccc1	-0.81	0.15
COC(=O)c1c(C)oc2ccc(OCc3ccccc3C)cc12	59.9	-1.3
CC(=O)Nc1ccc2c(c1)CN(C1CCCCC1)CO2	-0.11	1
C(=C\c1ccccc1)/CSc1nnc(-c2ccco2)n1-c1ccccc1	-0.815	.
CCCc1cnc(N2CCN(S(=O)(=O)c3cccs3)CC2)nc1	6	1
N#CC1(C#N)C(c2ccccc2Cl)C1(C#N)C#N	0.18	-2.45
CC(C)N(C(=O)NC(=O)Nc1cccc2ccccc12)S(C)(=O)=O	.	1.7
CCCS(=O)(=O)/C(C#N)=C/Nc1ccccn1	-0.975	-0.65
Nc1nc(/C(=C/CC(=O)O)C(=O)N[C@@H]2C(=O)N3C(C(=O)O)=CCS[C@H]23)cs1	.	-1.1
Cc1sc2c(c1C)c(=O)n(-c1ccc(Cl)cc1)c(=O)n2CC(=O)N1CCCCC1C (stereo not given)	0.765	-0.55
Cc1cccc(N2CCN(S(=O)(=O)c3c(C)c(C)cc(C)c3C)CC2)c1	-0.02	.
CCCn1c(C)cc(C(=O)CSc2nnc(-c3ccccc3)n2C)c1C	.	-1.05
Cc1ccc(C)c(N2N=C(C(=O)OCC(=O)NC3CC3)CCC2=O)c1	.	-0.5
O=C(Cc1cccs1)NCc1cc(Cl)cc(Cl)c1	0.235	-0.9
OC(CN1CCCC1)Cn1c2ccc(Cl)cc2c2cc(Cl)ccc21 (stereo not given)	0.695&0.35	.
NNC(=O)CN1C(=O)Nc2ccc(Br)cc2C1c1ccccc1 (stereo not given)	0	-0.55
CC(C)c1nnc(NC(=O)CC23CC4CC(CC(C4)C2)C3)s1	0.58	0.2
Cn1ccnc1C(=O)c1cccc(Br)c1	-0.095	-0.65
Nn1c(SCC(=O)N2CCCC2)nnc1C1CCCCC1	.	-0.85
CCOC(=O)CSCC1=C(C(=O)OCC)CNC(=O)N1	.	1
CN(C)c1ccc(N=Cc2nc(-c3ccccc3)oc2O)cc1	-0.345	0.15
O=C(NCCN1CCN(Cc2ccccc2)CC1)Nc1ccc(F)cc1	-0.2	-0.75

(next part)
SMILES	CapD inh	AID504770
COc1ccc2oc(=O)c(-c3nc4ccccc4c(=O)[nH]3)cc2c1	0.225	1.25
O=C(O)C1CC=CCC1C(=O)Nc1ccccc1F (stereo not given)	-0.16	-0.05
Cc1ccc2nc(N3CCN(Cc4nnnn4C4CCCC4)CC3)c(C#N)cc2c1	.	-0.15
COc1ccc(CNC(=O)CSc2nc3cc4c(cc3cc2C#N)OCCO4)cc1	.	1.05
CCOC(=O)c1cnc(SCC(=O)c2ccc(-c3ccccc3)cc2)nc1N	-0.115	1.4
Cc1ccc(OCCN2CCN(C(=O)CSc3nc4ccccc4nc3N3CCCC3)CC2)cc1	-0.81	1.25
CCOC(=O)c1ccc2[nH]c(-c3ccccc3)cc(=O)c2c1	3.71	.
N#Cc1ccc(-c2c(NC(=O)NS(=O)(=O)c3ccccc3Cl)oc(-c3ccco3)c2C#N)cc1	1.75	0.85
Cc1ccc(C(=O)COC(=O)c2ccc(N3C(=O)C4C5C=CC(C5)C4C3=O)cc2)cc1[N+](=O)[O-] (stereo not given)	-0.535	.
CN(CCOc1ccc(CC2SC(=O)NC2=O)cc1)c1ccccn1 (stereo not given)	.	-0.15
CCOC(=O)C1=C(C)N=c2s/c(=C\c3ccc(Br)o3)c(=O)n2C1c1cccc(OC)c1 (stereo not given)	-0.36	.
CCOC(=O)c1oc2c(CN3CCCCC3C)c(O)ccc2c(=O)c1-c1ccc(OC)c(OC)c1 (stereo not given)	-1.79	-0.2
O=C(Cn1cc(/C=N/NC(=S)Nc2ccccc2)c2ccccc21)NCc1ccco1	.	-0.25
CCS(=O)(=O)N1CCN(Cc2noc(CCC(=O)N3CCCCC3)n2)CC1	0.615	-1.55
Cc1cc(C)cc(NC(=O)N2CCOc3ccc(C)cc32)c1	-0.235	0.15
CCc1ccc(C(=O)N2CCN(c3ccc(N)cc3)CC2)cc1	.	-0.1
C/C(=N\OCC(=O)Nc1nc2ccccc2s1)c1cccs1	-0.15	0
C=C(C)c1cccc(C(C)(C)NC(=O)N2CCC(C)CC2)c1	23.3	0.2
CCOC(=O)c1cc(-c2csc(Nc3ccccc3)n2)on1	0.42	-1.2
COc1ccccc1NC(=O)c1sc(=S)n(-c2c(C)cccc2C)c1N	-0.845	.
CSc1nnc(NC(=O)c2ccco2)s1	-1.85	-1.1
C=CCN(CC=C)C(=O)c1ccc(I)cc1	-1.07	-1
CCOC(=O)c1sc2nc3c(cc2c1N)COC(C)(C)C3	0.57	0.35
O=C(Nc1ccccc1-c1nc2ccccc2s1)c1ccc(-c2ccccc2)cc1	0.15	.
Cc1ccccc1N1CC(C(=O)N2CC(C)CC(C)C2)CC1=O (stereo not given)	.	0.25

Following part:
SMILES	CapD inh	AID504770
CCOC(=O)/C=c1\s/c(=C\c2ccc(OC)cc2)c(=O)n1C	.	1.4
COc1cccc2onc(N)c12	0.215	-0.85
CCN1CCN(c2ncnc3sc(C(=O)Nc4ccc(F)c(Cl)c4)c(C)c23)CC1	0.165	.
CCOc1ccccc1-n1c(=S)sc2c(=O)n(-c3ccc(F)cc3)c(=S)[nH]c21	-0.76	.
O=C(O)CC12CC3CC(CC(O)(C3)C1)C2	0.04	-0.55
CN1/C(=C\C(=O)C(F)F)C(C)(C)c2ccccc21	2.06	1.5
O=C(CC(O)(c1ccccc1)c1ccccc1)Nc1ccccc1	-0.32	0
Cn1nc(C(F)(F)F)c(CNC(=O)c2ccc(C(F)(F)F)cc2)c1N1CCOCC1	0.325	0
O=c1c(N2CCN(c3ccccc3)CC2)csc2ccccc12	-2.45	-1.8
O=C(COC(=O)CC1CCCC1)Nc1cc(C(F)(F)F)ccc1N1CCOCC1	.	0
CCc1ccc(Nc2cc(C(=O)O)c3ccccc3n2)cc1	-0.275	0.1
COc1cccc([C@H]2C(C#N)=C(N)C(C#N)(C#N)C3=CCC(C)C[C@@H]32)c1 (stereo not given in full)	14.2	0.75
COc1ccc(N/C=C2\C(=O)N(c3ccc(Cl)cc3)CS2(=O)=O)cc1	3.99	.
O=C(NCCSc1ccccn1)c1cccc(Cl)c1	-0.31	-0.95
O=C1OCCC1(CCO)c1ccccc1 (stereo not given)	0.07	-1.3
CC(=O)O[C@H]1CC[C@@]2(C)C(=CC[C@@H]3[C@@H]2CC[C@]2(C)C(=O)CC[C@@H]32)C1	-0.6	.
Cc1oc(C(C)(C)C)cc1C(=O)NCCO	.	-1.55
CCOC(=O)c1cnn(C(=O)Cc2ccsc2)c1N	1.27	-0.9
COc1ccccc1OCC(=N)N	.	1.4
COc1ccc(C=C2C(=O)OC(C)(C)OC2=O)c(Cl)c1OC	0.475	.
O=C(Nc1ccccc1C(F)(F)F)c1ccc(F)c(S(=O)(=O)N2CCN(c3ccccc3)CC2)c1	-0.78	.
CCCCOc1cccc(NC(=O)CSC2=C(C#N)C(c3ccc(OCC)c(OC)c3)CC(=O)N2)c1 (stereo not given)	-0.485	.
O=C1c2ccccc2C(=O)N1CCN1CCN(c2ncc(C(F)(F)F)cc2Cl)CC1	.	-0.25
Cc1cc(C)c2sc(=NC(=O)CN3C(=O)CCC3=O)n(C)c2c1	.	-0.8
CCOC(=O)c1[nH]c(C)c(C(=O)C(C)C)c1C	0.08	-0.25

New compounds follow:
SMILES	CapD inh	AID504770
COC(=O)c1cc(C)sc1NC(=S)NC(C)c1cn(C)nc1C (stereo not given)	-1.47	-0.85
COc1cc(OC)cc(-c2nc(=S)n3ccsc3n2)c1	.	-0.35
CCN(CCNS(=O)(=O)c1cc(C(F)(F)F)cc(C(F)(F)F)c1)c1cccc(C)c1	-0.93	.
COc1cc(OC)nc(OC(Cc2nc3ccccc3o2)c2ccc(C(C)(C)C)cc2)n1 (stereo not given)	-0.215	.
CC(C)(C)c1ccc(Oc2cc(Br)c3noc4c3c2C(=O)c2ccccc2-4)cc1	-0.5	.
O=C(NC12CCC(O)C(SC1)C2O)c1ccccc1 (stereo not given)	.	1.3
Cc1cccc(NC(=O)c2cc3c([nH]c2=O)CCCC3=O)n1	0.315	-0.7
CC(=O)Nc1ccccc1OCc1cnc(Cl)s1	0.605	-0.05
CC(C)c1ccc(NC(=O)COC(=O)c2ccc[nH]c2=O)cc1	.	0.65
Nc1c2ccccc2nc2c(O)cccc12	-0.295	.
COc1ccc2[nH]c3c(=O)n(CC(=O)NC4CCCCCC4)c(=S)[nH]c3c2c1	0.035	1.05
Cc1cc(C(=O)NNC(=O)CCc2ccc3c(c2)OCO3)n[nH]1	-0.67	.
O=C(CCC(=O)n1ncc2ccc(Cl)cc21)NCc1cccnc1	0.215	-0.25
COc1cc(C2N(c3ccccc3)N=C(C(C)=O)N2c2ccccc2)ccc1OCc1ccc(Cl)cc1 (stereo not given)	-0.095	.
Oc1ccccc1N=Cc1ccc2ncccc2c1	-0.815	-1.2
COC(=O)c1ccc2c(=O)n(CC3CCCO3)c(SCC(=O)Nc3ccccc3Cl)nc2c1 (stereo not given)	1.57	0.1
CC1CC(=O)N(CC(N)=O)c2ccccc2S1 (stereo not given)	-0.855	0.4
COc1ccc(Sc2nncc3nnn(-c4ccc(Cl)cc4)c23)cc1	-0.325	0.35
O=C1CCC(=O)N1CN1CCC(CCCC2CCN(CN3C(=O)CCC3=O)CC2)CC1	-0.91	.
CCOc1ccc2nc(SCc3nc(N)nc(N4CCOCC4)n3)sc2c1	-0.25	.
CCCn1cc(S(=O)(=O)c2ccc(C)cc2)c(=O)c2cc(F)c(N3CCN(CC)CC3)cc21	110	-0.4
Cc1ccc(S(=O)(=O)N2CCCC(C(=O)O)C2)cc1 (stereo not given)	1.37	-0.75
Cc1ccc(CNC(=O)Cc2ccc(-n3c(=O)c4sccc4n(Cc4ccccc4)c3=O)cc2)cc1	-0.51	2.05
O=C(NCC(c1ccccc1)c1c[nH]c2ccccc12)C(F)(F)F (stereo not given)	-0.76	0.75
O=C(NCCSCCOC(=O)N1CCC(C(=O)c2ccc(Cl)cc2)CC1)c1sc2ccccc2c1Cl	-1.03	.

Following part:
SMILES	CapD inh	AID504770
CCOC(=O)c1ccc(NC(=O)CSc2ncc(S(=O)(=O)c3ccccc3)c(=O)[nH]2)cc1	-0.135	2.05
CCOC(=O)/C(C#N)=C/Nc1ccccc1Cl	-0.12	.
CCCN1C(=O)c2ccccc2C(C(=O)O)C1c1ccc(OC)cc1 (stereo not given)	0.45	0.35
Cc1ccc2c(c1)N(C(C)C(=O)NCc1cccs1)C(=O)CO2 (stereo not given)	-0.64	0.8
Cc1ccccc1C(=O)C(C#N)c1nc2ccc(C(F)(F)F)cc2s1 (stereo not given)	-3.53	-0.55
COC(=O)CSc1nc2sc3c(c2c(=O)n1CC1CCCO1)CCCC3 (stereo not given)	.	-0.5
CCOC(=O)CSc1nc2ccccc2s1	-0.15	-0.75
COc1ccc(-c2nc(SCC(=O)N3CCCC3)c3c(=O)n(C)c(=O)n(C)c3n2)cc1	0.055	1.75
Cc1ccc(COc2c(Br)cc(C3Nc4ccc5ccccc5c4C4=C3C(=O)CC(C)(C)C4)cc2Br)cc1 (stereo not given)	5.5	.
CSc1ccccc1NC(=O)C1C2CCC(C2)C1C(=O)O (stereo not given)	-1.94	-0.7
COc1ccccc1Nc1ncc(C(=O)NCCCN2CCC(C)CC2)c2ccccc12	0.355	0.05
COc1ccccc1NC(=O)C1=C(C)NC(SCC(=O)Nc2ccccc2C)=C(C#N)C1c1ccccc1 (stereo not given)	-0.15	.
CCOc1nc(NC(=O)NC(=O)c2cccs2)nc(-c2ccccc2)n1	-0.115	-0.2
O=S1(=O)N=C(N(Cc2cccs2)c2ccc(O)cc2)c2ccccc21	-1.34	1.15
Cc1cc(O)cc(=O)[nH]1	.	-1.45
CC(C)NCC(O)COc1cccc2[nH]ccc12 (stereo not given)	-0.385&1.02	0.1
Cc1ccc(C#N)c(SCc2nnc(-c3ccc(Cl)cc3)o2)n1	61.4	-0.3
N#Cc1c(/N=C/c2ccc([N+](=O)[O-])cc2)oc(-c2ccccc2)c1-c1ccccc1	0.885	.

Screening data from PubChem.
